High-throughput results from PubChem.
KCNQ2 enhance: potentiators of rat KCNQ2 potassium channel; O88943; CHO-K1 KCNQ2, FluxOR thallium flux fluorescence; stronger effect = higher value; B-score at 10 µM; actives 0.54% (n = 310,000); AID 2239;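 active = fluorescence ratio B-score at least 3 SD of library B-scores, with initial fluorescence B-score within 3 SD, cut at about 5.3 in these data; same plate scores as AID 2156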;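 also: B-score of peak minus minimum over baseline fluorescence ratio after K+ and Tl+ stimulus; positive B-score means potentiation of KCNQ2 with more thallium influx and brighter signal; only the inactives scoring about 0 or higher are listed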
Target sequence (O88943 whole entry, looked up): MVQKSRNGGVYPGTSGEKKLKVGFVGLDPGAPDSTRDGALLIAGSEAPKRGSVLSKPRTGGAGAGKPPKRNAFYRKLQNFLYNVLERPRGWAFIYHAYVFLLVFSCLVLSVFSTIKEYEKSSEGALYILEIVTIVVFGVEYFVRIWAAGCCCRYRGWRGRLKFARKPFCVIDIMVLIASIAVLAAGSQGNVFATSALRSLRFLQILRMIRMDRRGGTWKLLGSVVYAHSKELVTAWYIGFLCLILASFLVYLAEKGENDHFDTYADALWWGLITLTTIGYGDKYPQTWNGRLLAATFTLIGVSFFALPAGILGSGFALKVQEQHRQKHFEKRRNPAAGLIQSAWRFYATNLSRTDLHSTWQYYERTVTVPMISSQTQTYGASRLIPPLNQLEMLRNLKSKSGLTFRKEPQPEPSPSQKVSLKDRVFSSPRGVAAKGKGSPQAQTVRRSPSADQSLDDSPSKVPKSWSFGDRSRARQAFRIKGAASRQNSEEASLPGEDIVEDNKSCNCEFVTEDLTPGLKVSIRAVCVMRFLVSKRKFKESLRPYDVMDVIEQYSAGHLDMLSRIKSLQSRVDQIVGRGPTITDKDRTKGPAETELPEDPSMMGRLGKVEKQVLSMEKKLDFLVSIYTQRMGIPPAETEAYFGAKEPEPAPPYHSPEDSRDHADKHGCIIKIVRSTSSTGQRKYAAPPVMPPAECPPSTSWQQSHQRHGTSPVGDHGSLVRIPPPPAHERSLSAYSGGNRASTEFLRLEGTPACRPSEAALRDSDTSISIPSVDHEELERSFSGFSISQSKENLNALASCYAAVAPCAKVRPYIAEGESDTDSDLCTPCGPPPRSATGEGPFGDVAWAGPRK
KCNQ2 enhance baseline: second read-out of KCNQ2 enhance, no call of its own (marks repeat the call); B-score; compound at 10 µM; measured here: initial fluorescence intensity artifact check;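 brightness before thallium and not channel activity; 0 = typical well and far values either way flag optical interference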
* hit, by the source's call. Not all compounds are listed; count on the stated rates, not on these rows.

KCNQ2 enhance | KCNQ2 enhance baseline | structure
1.2 | 1.2 | COc1ccc(C2=NOC(C(=O)NCCCN3CCOCC3)C2)cc1 (stereo not given)
0.04 | -1.1 | COc1ccc(Nc2ccc([N+](=O)[O-])c3nonc23)c(OC)c1
0.62 | 1.6 | COc1cccc(NC(=O)CN(C)C(=O)c2cc3c(s2)CCC3)c1
1.7 | 0.09 | Cc1ccc(NC(=O)NC2CCN(S(=O)(=O)c3ccc(F)cc3)CC2)cc1
0.67 | -1 | COP(C)(=O)c1c(C)nn(-c2ccccc2)c1C (stereo not given)
0.03 | -0.05 | CCc1ccc(NC(=O)C2CC(=O)N(C(C)C)C2)cc1 (stereo not given)
0.01 | 0.99 | CC(=O)c1c(C(C)=O)c(C)n(-c2nc(-c3ccccc3)c(C)s2)c1C
0.95 | -0.58 | CCC(NC(=O)NCc1cccnc1)(C(F)(F)F)C(F)(F)F
1.3 | 1.2 | COc1cc2ccc3c(CCN(C)C)cc(OC)c(OC)c3c2cc1OC
0.01 | -0.58 | COc1ccc(/C=N/NC(=O)c2cc(C)on2)c2ccccc12
0.57 | -0.73 | O=C(NCCOc1ccccc1)C(=O)c1c[nH]c2ccccc12
1 | 2.8 | CCN(CC)c1ccc(NC(=O)C(C)C)cc1
0.07 | 2.1 | COc1ccc(Cn2c(O)cc(=O)[nH]c2=O)cc1
1.9 | -1.1 | CCOC(=O)c1sc(NC(=O)c2ccc3nc[nH]c3c2)nc1C
0.05 | -1.1 | Cc1cc(=O)n(CNC(=O)c2ccccc2)c(=S)[nH]1
1.6 | 1.9 | CCn1c(Cn2nnc(-c3ccccc3)n2)nnc1SCC(=O)Nc1ccccc1
0.5 | 0.65 | Cc1ccc(OCC(=O)NCc2n[nH]c(=O)c3ccccc23)cc1
0.01 | -1.6 | CC(=O)N1c2ccc(S(=O)(=O)N3CCCC(C(=O)Nc4ccc(F)cc4)C3)cc2CC1C (stereo not given)
1 | -0.82 | O=S(=O)(NCc1csc(-c2cccnc2)n1)c1ccc2c(c1)OCCO2
1.6 | 0.03 | COc1ccc(N2CC(C)Cn3c2nc2c3c(=O)n(CCN3CCOCC3)c(=O)n2C)cc1 (stereo not given)

The list continues:
KCNQ2 enhance | KCNQ2 enhance baseline | structure
2.8 | -0.21 | Cn1c(=O)c2c(SCC(=O)N3CCCCC3)nc(-c3ccccc3F)nc2n(C)c1=O
1.4 | -1.1 | O=C(CNC(=O)c1ccc(Cl)cc1Cl)NCC1CCCO1 (stereo not given)
0.48 | 0.03 | Cc1cnc(C(=O)OCC(=O)NC2CCCCCC2)cn1
1.9 | -2 | O=C(Nc1cc(-c2ccccc2)sc1C(=O)O)c1cccc(F)c1
0.17 | -1.2 | Cc1noc(C)c1CSc1nc2ccccc2[nH]1
0.45 | 0.47 | COc1ccc(C(C#N)N2CCCCCC2)cc1OC (stereo not given)
1.7 | 0.69 | FC(F)(F)c1nnc2ccc(NCc3cccnc3)nn12
1.9 | -3.1 | CCOc1ccc(/C(O)=C2/C(=O)C(=O)N(CCOCCO)C2c2ccccn2)cc1 (stereo not given)
0.68 | 0.07 | O=c1[nH]c(C(F)(F)F)nc2ccccc12
0.22 | -1.5 | COc1ccc(-c2ccc(-c3noc(-c4cccs4)n3)c(OC)n2)cc1
1.5 | -2.2 | O=C(N/N=C/c1ccc(Br)s1)c1c[nH]c2ccccc12
0.63 | 0.65 | COc1ccc(C(CC(=O)N2CCCCC2)c2c(O)cc(OC)cc2OC)cc1 (stereo not given)
0.37 | 0.45 | c1ccc2c(c1)CSc1ccccc1N2
0.78 | -0.88 | CC(c1ccccn1)N(C)C(=O)c1ccc2nc(Cc3cccc(Cl)c3)oc2c1 (stereo not given)
0.55 | -1.7 | CS(=O)(=O)N(CC(=O)N1CCCC1)c1ccc(Cl)cc1Cl
0.22 | -0.58 | CC1CCCCC1NC(=O)CSc1nnnn1-c1ccccc1 (stereo not given)
0.35 | 0.05 | O=C(Cn1c(=O)[nH]c2ccsc2c1=O)NC1CCCCCC1
4.4 | -0.08 | CC1=NN(C(=O)c2ccco2)C(O)(c2ccccc2)C1 (stereo not given)
0.01 | 0.7 | O=C(NCC1CCCO1)c1cccc(S(=O)(=O)N(Cc2ccccc2)c2ccccc2)c1 (stereo not given)
0.35 | 2 | CCOC(=O)c1c(C)oc(C)c(C(=O)OCC)c1=O

The last two compounds of the part before lead into the next.
KCNQ2 enhance | KCNQ2 enhance baseline | structure
0.01 | 0.7 | O=C(NCC1CCCO1)c1cccc(S(=O)(=O)N(Cc2ccccc2)c2ccccc2)c1 (stereo not given)
0.35 | 2 | CCOC(=O)c1c(C)oc(C)c(C(=O)OCC)c1=O
1.2 | 0.76 | CC(=O)Oc1ccc(N(C(C)=O)S(=O)(=O)c2ccc(C)c([N+](=O)[O-])c2)cc1
0.27 | -1.3 | Cc1ccc(-c2noc(CN3C(C)CCCC3C)n2)cc1 (stereo not given)
0.82 | 1.4 | CCCCCNC(=O)C1CC(=O)OC12CCCCC2 (stereo not given)
1.5 | -0.41 | CCOc1ccc(CSC(=N)N)cc1
1.1 | 0.01 | CCCN=Cc1c(CCC)[nH]n(-c2nc3ccccc3s2)c1=O
0.86 | 0.02 | COc1ccc([N+](=O)[O-])cc1NC(=O)COC(=O)c1ccccc1C(=O)c1ccccc1
0.22 | -1.5 | COC(=O)c1cn(CC(=O)Nc2ccccc2C)c2ccccc12
0.33 | 2 | Cc1nnc(SCc2nnc(-c3ccccc3)o2)n(N)c1=O
0.14 | -0.06 | Cn1c(CNC(=O)CNC(=O)c2ccc(C(C)(C)C)cc2)cc(=O)n(C)c1=O
0.99 | -0.83 | CN1C(=O)c2oc3ccccc3c(=O)c2C1c1ccccn1 (stereo not given)
0.94 | 1.7 | CCn1c(N2CCN(C(=S)NCC(C)C)CC2)nc2ccccc21
0.14 | -1 | COc1ccccc1NC(=O)CCC(=O)Nc1cc(OC)c(NC(=O)c2cccs2)cc1OC
2.1 | 2.3 | Clc1ccc(CN2C3=NCCCN3c3ccccc32)cc1
1.2 | -0.08 | COc1ccc(CCNC(=O)CC(Cc2ccc(C)cc2)C(=O)O)cc1OC (stereo not given)
0.72 | -1.6 | COCCN1CCN(C(=O)c2cc(COc3ccc(F)cc3Cl)on2)CC1
1.5 | -0.16 | CCOC(=O)c1c(C)n(CC(COC(C)=O)OC(C)=O)c2ccc(OC(C)=O)cc12 (stereo not given)
0.04 | 0.74 | C=CCOc1ccccc1/C=N/NC(=O)Cc1ccccc1
1 | 0.07 | O=C1CN(C(=O)c2ccco2)c2ccccc2N1
0.05 | -0.29 | COc1ccc(NC(=O)CN(C)C(=O)Cc2ccc3c(c2)CCC3)cc1
0.4 | 0.15 | C=CCCC(=O)N1CCC(Oc2cccc(C(=O)NCc3ccccn3)c2)CC1

The list continues.
KCNQ2 enhance | KCNQ2 enhance baseline | structure
0.63 | -0.49 | COC(=O)c1sc(NC(=O)CSc2nc3cccnc3n2C)nc1C
1.5 | -0.17 | CC(C)CC(=O)NCC(C)NC(=O)CC(C)C (stereo not given)
1.5 | -0.9 | COc1ccccc1NC(=S)Nc1ccccc1F
1.8 | -0.02 | COCCNC(=O)COc1cccc2c1OC(C)(C)C2
0.69 | -0.36 | C=CCNCCCOc1ccc(Cl)cc1Br
0.66 | -0.59 | COC(=O)c1cc(-n2cccc2)ccc1N1CCOCC1
0.72 | -0.03 | COC(CNC(=O)Cc1c(C)nc2c(-c3ccccc3)c(C)nn2c1C)OC
1.6 | -0.64 | N#CCc1nn(Cc2ccc(F)cc2)c(=O)c2ccccc12
0.75 | 0.02 | CN1CCC(=O)N([C@H](CSc2ccc(Br)cc2)Cc2ccccc2)CC1
1.3 | -1.6 | CCCOC(=O)NC1C(NC(=O)OCCC)N(C)C(=O)N1C (stereo not given)
0.82 | 0.28 | COc1ccc(-n2cnnc2SCC(=O)N2CCN(c3ccccc3)CC2)cc1
0.41 | 0.14 | CC1CN(Cc2nc3ccccc3c(=O)[nH]2)CC(C)O1 (stereo not given)
0.74 | -0.12 | CC(C)c1ccc(CN(C(=O)c2cc3ccccc3oc2=O)C2CCS(=O)(=O)C2)cc1 (stereo not given)
0.85 | 0.88 | NS(=O)(=O)c1ccc(CNC(=O)c2cccnc2Cl)cc1
0.74 | -0.76 | CCC(C(=O)N1CCN(S(C)(=O)=O)CC1)c1ccccc1 (stereo not given)
0.56 | 1.4 | O=C(Nc1ccc(C(F)(F)F)cc1)c1ccc(NC(=O)C2CCCO2)cc1 (stereo not given)
0.27 | 0.53 | COC(=O)/C(N=Nc1cccc(C(F)(F)F)c1)=C(\C)O
1.3 | -1.4 | Cc1cc(C)cc(NC(=O)CSc2nnc(NC(=O)C3CC3)s2)c1
1.7 | 1 | NC(=O)[C@@H]1CCCN1Cc1nc(-c2ccccc2)no1
0.25 | -0.79 | CCCCCC(=O)Nc1ccc(N2CCN(S(C)(=O)=O)CC2)cc1

3 records picked at random from the list so far, as already listed:
KCNQ2 enhance | KCNQ2 enhance baseline | structure
0.41 | 0.14 | CC1CN(Cc2nc3ccccc3c(=O)[nH]2)CC(C)O1 (stereo not given)
0.74 | -0.76 | CCC(C(=O)N1CCN(S(C)(=O)=O)CC1)c1ccccc1 (stereo not given)
0.75 | 0.02 | CN1CCC(=O)N([C@H](CSc2ccc(Br)cc2)Cc2ccccc2)CC1

The listing continues.
KCNQ2 enhance | KCNQ2 enhance baseline | structure
0.02 | -0.04 | CCOc1ccc(CC2NCCc3cc(OCC)c(OCC)cc32)cc1OCC (stereo not given)
0.17 | -1.3 | CSc1cccc(N2CC(C(=O)NCCN3C(=O)S/C(=C\c4cccnc4)C3=O)CC2=O)c1 (stereo not given)
0.7 | 0.92 | CC(CCN1CCN(c2ccccn2)CC1)c1ccccc1 (stereo not given)
1.8 | 0.72 | COc1ccc(N(C(C)C(=O)N/N=C/c2cccnc2)S(C)(=O)=O)cc1 (stereo not given)
0.34 | -0.12 | Cc1nnc(SCC(=O)Nc2ccc(N3CCN(S(C)(=O)=O)CC3)cc2)o1
0.09 | -1.7 | Cc1cc(C)c(Nc2ncccc2C(=O)O)c(C)c1
0.07 | -1.3 | COc1cc(C(CC(=O)Nc2cccc(C)n2)N2Cc3ccccc3C2=O)cc(OC)c1OC (stereo not given)
0.05 | -1.2 | Cn1c(=O)[nH]c(=O)c2c1nc1n2CCS1
1.1 | -0.05 | CC(C)Nc1nnc(SCc2cc(=O)n3ccsc3n2)s1
0.04 | -1.1 | CCOC(=O)C1=C(COC(=O)CCOc2ccc(C)cc2)NC(=O)NC1C (stereo not given)
0.42 | -0.71 | O=C(CCc1c[nH]c2ccccc12)OCC(=O)N1CCN(S(=O)(=O)c2ccccc2)CC1
0.03 | -2 | COc1cc(/C=C/C(=O)Nc2cc(C(F)(F)F)ccc2Cl)cc(OC)c1OC
0.84 | -0.97 | CCOC(=O)CC(NCc1ccc(OC)c(OCC)c1)c1ccc(C)cc1 (stereo not given)
1 | 0.27 | CC(C)CN(C(=O)c1cc2ccccc2o1)c1c(N)n(CC(C)C)c(=O)[nH]c1=O
1.6 | -0.37 | COc1ccc(CCNC(=O)Cn2nnc(C(=O)Nc3ccc(Br)cc3)c2N)cc1OC
0.88 | -0.04 | O=C(Cn1cc([N+](=O)[O-])cn1)NCc1ccc(-n2cccn2)cc1
0.71 | -1.1 | CCOc1cc(/C=N/NC(=O)c2cccnc2)ccc1OCC(=O)N1CCOCC1
0.11 | -0.58 | C=CCNC(=O)C(C#N)c1nc2ccccc2nc1N1CCN(Cc2ccccc2)CC1 (stereo not given)
0.61 | -0.06 | O=C(CCSc1nc(-c2ccco2)cc(C(F)(F)F)n1)NCC1CCCO1 (stereo not given)
0.72 | 0.23 | Cc1cc(C(=O)N2CCC(C(=O)O)CC2)c(C(F)(F)F)o1

(further entries)
KCNQ2 enhance | KCNQ2 enhance baseline | structure
0.52 | 0.23 | CCS(=O)(=O)Nc1ccc(C2=NN(C(=O)c3ccco3)C(c3ccc(C)cc3)C2)cc1 (stereo not given)
1.2 | 0.08 | CC(=O)Nc1ccc(NC(=O)CCn2c(=S)oc3ccccc32)cc1
0.24 | -0.11 | COCC(=O)Nc1ccccc1C(=O)Nc1ccc(OC)cc1
0.02 | -0.26 | COc1ccc(NC(=O)C(=O)NCCCO)cc1Cl
0.87 | -0.31 | Cc1ccc(OCC(=O)NCCCNC(=O)c2cccnc2)cc1C
0.1 | 1.4 | CCOc1ccc(Nc2nc3c(c(=O)[nH]2)CCCC3)cc1
1 | -0.1 | CSc1cccc(NC(=O)CC2Oc3ccccc3NC2=O)c1 (stereo not given)
3.9 | -1.9 | O=c1cc(-c2c(F)c(F)c(F)c(F)c2F)oc2ccccc12
0.18 | 0.32 | Cc1cc(=O)oc(C)c1C(=O)O
0.13 | 0 | CCCN(CC(=O)Nc1ccccc1C)C(=O)c1ccc(S(=O)(=O)N2CCCCC2)cc1
0.03 | -1.1 | O=C(NC(Cc1ccccc1)C(=O)NCCc1ccccn1)c1cccs1 (stereo not given)
1.1 | 0 | CCOC(=O)C1CCN(C(=O)CCCOc2ccccc2)CC1
0.79 | 0.27 | O=C(Nc1ccccc1C(=O)Nc1ccccc1)c1ccccc1F
0.36 | 1.9 | COc1ccc(CCNC(=O)CC2SC(N)=NC2=O)cc1OC (stereo not given)
1.4 | -0.27 | Clc1ccccc1CSc1ncccn1
0.13 | -0.42 | Cn1c(C(=O)N2CCN(c3ccc(Cl)cc3)CC2)cc2c(=O)[nH]c3ccccc3c21
0.49 | -0.05 | CCCC(=O)Nc1ccccc1-c1nnc(SC)[nH]c1=O
1.6 | 0.6 | O=C(Nc1ccc(-c2nc3ccccc3[nH]2)cc1)c1cccc(N2C(=O)CCC2=O)c1
2.2 | -0.63 | Cc1ccc(NC(=O)N2CCCCCC2)cc1
0.34 | -0.49 | O=C(/C=C/Nc1cccc(C(F)(F)F)c1)c1ccc(Oc2ncccn2)cc1

Compound profiles (already shown):
COc1ccc(C2=NOC(C(=O)NCCCN3CCOCC3)C2)cc1 (stereo not given) as listed: KCNQ2 enhance: 1.2; KCNQ2 enhance baseline: 1.2
COc1ccc(-c2ccc(-c3noc(-c4cccs4)n3)c(OC)n2)cc1 as listed: KCNQ2 enhance: 0.22; KCNQ2 enhance baseline: -1.5
